High-throughput results: PubChem, Broad Institute
Shh pathway inh: blocks Sonic Hedgehog signaling; AID 2313; hit rate 2.1% among 22,000; inhibition, % (concentration not given with the values); Shh-LIGHT2 Gli-luciferase reporter, 30 h;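 active means replicate mean of 65% or more; inconclusive means mean lower but half the replicates past it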;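 further: pathway switched on by Shh-conditioned medium diluted 1 in 25 in low serum; 100 nL library stock added to about 40 µL; 0% = median of neutral wells and 100% = positive control level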
PD-1 reverse act: activators reversing PD-1 mediated T-cell inhibition; primary human CD4 T cells, PD-L1 beads, CellTiter-Glo 96 h; activation, % (concentration not given with the values); 29,000 tested, under 10 active;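 active means replicate mean of 50% or more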;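 further: 0% = median vehicle wells and 100% = positive control; 100 nL library stock added to about 50 µL; numbers are from one replicate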
YB-1 expr inh: YB-1 expression inhibition. U2OS, qRT-PCR YB-1 vs CDIP delta delta Cp, 16 h; hits give high values; zero = DMSO, each unit about twofold. delta delta Cp (YB-1 minus CDIP) (test concentration not listed). hit rate 0.37% among 30,000. AID 434959;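 active means delta delta Cp rounded down to an integer at or above 3, about 3 SD of DMSO wells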;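 further: higher means less YB-1 transcript or more CDIP transcript relative to DMSO; stock transfer was 100 nL into about 100 µL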
MITF inh: blocks MITF activity; TRPM1 promoter luciferase, luminescence, 24 h; inhibition, % (no concentration beside the values); hit rate 0.28% among 37,000; AID 2240;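 active means most replicates at 85% or more, or half of them and the mean; inconclusive means half reach 85% but not the mean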;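 further: human melanocyte line stably carrying TRPM1 promoter luciferase reporter; 0% = vehicle wells and 100% = a positive control; the first replicate is given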
An asterisk follows results filed as active; ? = inconclusive; / = no result given. Not all compounds are listed (hit frequency here may not be typical).

| molecule | Shh pathway inh | PD-1 reverse act | YB-1 expr inh | MITF inh |
| --- | --- | --- | --- | --- |
| C[C@@H]1CCCCO[C@@H](CN(C)Cc2ccncc2)[C@@H](C)CN([C@H](C)CO)C(=O)c2cc(NC(=O)Nc3ccc4c(c3)OCO4)ccc2O1 | -10 | 0.6 | -0.38 | -14 |
| C[C@@H]1CN([C@H](C)CO)C(=O)Cc2cc(N(C)C)ccc2O[C@H]1CN(C)CC1CC1 | 0 | / | -0.54 | 1 |
| CC(C)NC(=O)Nc1ccc2c(c1)CC(=O)N([C@H](C)CO)C[C@@H](C)[C@@H](CN(C)C(=O)Nc1ccc(C(F)(F)F)cc1)O2 | / | -1.5 | -0.27 | -10 |
| COc1cc(C(=O)NCc2ccco2)cc(OC)c1OC | / | -0.6 | / | -14 |
| C[C@H]1CN([C@@H](C)CO)C(=O)Cc2cc(NC(=O)Cn3cnnn3)ccc2O[C@H]1CN(C)Cc1ccccc1 | -15 | 1.8 | -0.059 | -1 |
| O=c1oc(-c2ccccn2)nc2ccccc12 | 4 | 2.5 | -1.1 | -1 |
| CC(=O)Nc1cccc(NC(=O)CSc2nnnn2C)c1 | / | 4.2 | / | -22 |
| C/C(=C/CCC(CO)C1CCC2(C)C3CCC4C(C)(C)C(OC5OC(CO)C(O)C(O)C5O)CC(O)C45CC35CCC12C)COC1OC(CO)C(O)C(O)C1O (stereo not given) | 3 | / | 0.17 | / |
| CCCCCCCCC/C=C/C(=O)CCc1ccc(O)c(OC)c1 | 43 | / | 0.15 | / |
| COc1ccccc1NC(=O)Cn1cc(C(=O)c2ccccc2F)c2ccccc21 | / | 1.3 | / | 13 |
| Cc1noc(C)c1NC(=O)Nc1ccc2c(c1)C(=O)N([C@@H](C)CO)C[C@H](C)[C@@H](CN(C)S(C)(=O)=O)O2 | 29 | 1.0 | -0.37 | -1 |
| C[C@H]1CN([C@@H](C)CO)C(=O)c2cccc(NC(=O)c3cnccn3)c2O[C@H]1CN(C)Cc1ccccc1 | -30 | 3.0 | -0.53 | -10 |
| COc1ccc(S(=O)(=O)Nc2cccc3c2O[C@@H](CN(C)Cc2ccc(Cl)c(Cl)c2)[C@H](C)CN([C@@H](C)CO)C3=O)cc1 | 31 | 1.3 | 0.072 | -13 |
| CCOc1ccc(C(=O)c2oc3ccccc3c2NC(=O)c2cc3ccccc3oc2=O)cc1 | / | -0.8 | / | -24 |
| O=C(NCc1cccnc1)C1CC(c2ccccc2Cl)=NO1 (stereo not given) | / | 3.0 | / | -37 |

(continued)
| molecule | Shh pathway inh | PD-1 reverse act | YB-1 expr inh | MITF inh |
| --- | --- | --- | --- | --- |
| COc1ccc(NC(=O)CN(C2CCCCC2)S(C)(=O)=O)cc1OC | / | 3.5 | / | -1 |
| CNC(=S)N(Cc1ccco1)C1CC(=O)N(c2ccc(C(=O)OC)cc2)C1=O (stereo not given) | / | -4.1 | / | 11 |
| C[C@@H]1CN([C@H](C)CO)C(=O)c2cc(NS(=O)(=O)c3cn(C)cn3)ccc2O[C@@H]1CN(C)Cc1ccc(-c2ccccc2)cc1 | / | 0.8 | 0.34 | 2 |
| Cc1noc(C)c1S(=O)(=O)Nc1cccc2c1O[C@H](CN(C)Cc1ccc(C(=O)O)cc1)[C@@H](C)CN([C@H](C)CO)C2=O | -20 | 1.0 | 0.14 | 0 |
| Cc1nc(SCC(=O)n2c3c(c4ccccc42)CCCC3)n[nH]1 | / | 3.5 | / | -5 |
| CNC[C@@H]1Oc2ccc(NS(=O)(=O)c3cccs3)cc2C(=O)N([C@H](C)CO)C[C@@H]1C | 0 | -0.2 | -0.18 | 1 |
| C[C@@H]1CN([C@H](C)CO)C(=O)c2cc(NC(=O)Cn3cnnn3)ccc2O[C@H]1CN(C)C(=O)Nc1cccc2ccccc12 | / | / | -0.01 | -3 |
| CC(C)NC(=O)N(C)C[C@@H]1Oc2c(cccc2N(C)C)C(=O)N([C@H](C)CO)C[C@H]1C | 2 | / | -0.17 | 1 |
| CC(=O)OCC(=O)[C@@]1(O)CCC2C3CCC4=CC(=O)C=CC4(C)C3[C@@H](O)C[C@@]21C (stereo not given in full) | ? | / | -0.0062 | -13 |
| COc1ccc(Cl)cc1NC(=O)C12CCC(C)(c3nc4ccccc4nc31)C2(C)C (stereo not given) | / | -0.2 | / | -3 |
| C[S+](O)c1ccc(CSc2nc(-c3ccc(F)cc3)c(-c3ccncc3)[nH]2)cc1 (stereo not given) | -55 | 2.9 | -0.27 | -7 |
| COc1ccccc1OC(C)C(=O)NN (stereo not given) | -11 | 1.6 | -0.16 | 3 |
| C[C@H](CO)N1C[C@H](C)[C@H](CN(C)C(=O)Nc2ccc(F)cc2)Oc2ccc(NS(=O)(=O)c3ccccc3)cc2C1=O | / | -7.4 | -0.09 | -3 |
| C=Cc1ccc(O[C@@H]2O[C@H](CO)[C@@H](O)[C@H](O)[C@H]2O[C@@H]2O[C@@H](C)[C@H](O)[C@@H](O)[C@H]2O)cc1 | -5 | 2.7 | -0.35 | -7 |
| COc1ccc(NC(=O)Nc2cccc3c2O[C@@H](CN(C)C(=O)Nc2ccccc2)[C@@H](C)CN([C@H](C)CO)C3=O)cc1 | -49 | / | -0.057 | -2 |

Remaining list, next part:
| molecule | Shh pathway inh | PD-1 reverse act | YB-1 expr inh | MITF inh |
| --- | --- | --- | --- | --- |
| OCCN(CCO)Cc1ccc(Br)cc1 | / | 1.3 | / | -4 |
| Nc1nc2ccc(-c3nc4ccccc4o3)cc2s1 | 25 | 0.7 | -0.5 | 33 |
| C[C@@H]1CN([C@H](C)CO)C(=O)c2cc(NS(=O)(=O)c3cccs3)ccc2O[C@H]1CN(C)S(=O)(=O)c1ccc(Cl)cc1 | / | 3.1 | -0.063 | -20 |
| CCOc1ccc(NC(=O)Cn2cncc2-c2ccc([N+](=O)[O-])cc2)cc1 | / | 0.3 | / | 64 |
| Cc1ccc(S(=O)(=O)Nc2cccc3c2O[C@@H](CN(C)C(=O)Nc2ccc(F)cc2)[C@@H](C)CN([C@H](C)CO)C3=O)cc1 | -26 | -2.7 | 0.078 | 15 |
| CCCN(C)C[C@H]1OCCCC[C@@H](C)Oc2ccc(NC(=O)CCC(F)(F)F)cc2C(=O)N([C@H](C)CO)C[C@@H]1C | -22 | / | 0.64 | -30 |
| COc1cc(NCCCC(C)N)c2ncccc2c1 (stereo not given) | / | -6.4 | 0.23 | 41 |
| CCCCC[C@H](CC(=O)NO)C(=O)N[C@H](C(=O)N1CCC[C@H]1CO)C(C)C | -8 | / | 0.08 | 20 |
| C[C@H](CO)N1C[C@H](C)[C@H](CN(C)C(=O)Nc2ccc(F)cc2)Oc2ccc(N(C)C)cc2C1=O | -6 | 0.2 | 0.029 | -3 |
| Cc1ccc(S(=O)(=O)N(C)C[C@@H]2Oc3c(NC(=O)Nc4cccc5ccccc45)cccc3C(=O)N([C@@H](C)CO)C[C@H]2C)cc1 | -6 | 2.4 | 0.16 | -4 |
| C=C1C(=O)O[C@@H]2[C@H]3C(=C)[C@@H](O[C@@H]4O[C@H](CO)[C@@H](OC(=O)/C=C/c5ccc(O)c(O)c5)[C@H](O)[C@H]4O)C[C@H]3C(=C)C[C@@H](O)[C@@H]12 | -14 | / | -0.26 | / |
| CC(C)NC(=O)Nc1cccc2c1O[C@H](CN(C)C(=O)Nc1ccc(C(F)(F)F)cc1)[C@@H](C)CN([C@H](C)CO)C2=O | -1 | -0.1 | -0.51 | -12 |
| Cc1noc(C)c1S(=O)(=O)Nc1cccc2c1O[C@H](CN(C)C(=O)Nc1ccccc1)[C@H](C)CN([C@H](C)CO)C2=O | -6 | / | -0.0023 | 4 |
| Cc1cc(C)c(NC(=O)C(CCS(C)(=O)=O)N2C(=O)c3ccc(Br)cc3C2=O)c(C)c1 (stereo not given) | / | 1.2 | / | -4 |
| CSc1ncc(Cl)c(C(=O)Nc2sc3c(c2C(=O)NCC2CCCO2)CCC3)n1 (stereo not given) | / | 0.4 | / | -13 |

Complete entries from above.
C[C@H](CO)N1C[C@H](C)[C@H](CN(C)C(=O)Nc2ccc(F)cc2)Oc2ccc(N(C)C)cc2C1=O is listed with Shh pathway inh: -6; PD-1 reverse act: 0.2; YB-1 expr inh: 0.029; MITF inh: -3
CCOc1ccc(NC(=O)Cn2cncc2-c2ccc([N+](=O)[O-])cc2)cc1 is listed with Shh pathway inh: /; PD-1 reverse act: 0.3; YB-1 expr inh: /; MITF inh: 64
CCCN(C)C[C@H]1OCCCC[C@@H](C)Oc2ccc(NC(=O)CCC(F)(F)F)cc2C(=O)N([C@H](C)CO)C[C@@H]1C is listed with Shh pathway inh: -22; PD-1 reverse act: /; YB-1 expr inh: 0.64; MITF inh: -30

More records
| molecule | Shh pathway inh | PD-1 reverse act | YB-1 expr inh | MITF inh |
| --- | --- | --- | --- | --- |
| COc1ccc(NC(=O)N(C)C[C@@H]2Oc3ccc(NC(=O)c4ccncc4)cc3CC(=O)N([C@H](C)CO)C[C@H]2C)cc1 | -36 | 0.9 | -0.08 | -8 |
| C[C@H]1CN([C@@H](C)CO)C(=O)c2cccc(NC(=O)C3CC3)c2O[C@H]1CN(C)S(=O)(=O)c1ccccc1 | 13 | 0.3 | 0.059 | -12 |
| CCn1c(CNC(=O)c2ccc(OC)c(OC)c2)n[nH]c1=S | / | 1.2 | / | -8 |
| Cc1cccc(C)c1N(CC(=O)N1CCN(C)CC1)S(C)(=O)=O | / | 0.4 | / | -11 |
| C[C@H](CO)N1C[C@H](C)[C@H](CN(C)S(C)(=O)=O)Oc2ccc(NS(C)(=O)=O)cc2CC1=O | 19 | 2.3 | -0.098 | -1 |
| C/C(=C\CC[C@H](CO)[C@@H]1CC[C@]2(C)C3=C(CC[C@@]12C)[C@@]1(C)CCC(=O)C(C)(C)C1CC3)C(=O)O (stereo not given in full) | -71 | / | -0.032 | / |
| O=S(=O)(NC1c2cccc3cccc(c23)C1Sc1nnnn1-c1ccccc1)c1ccccc1 (stereo not given) | / | -0.5 | / | 14 |
| COc1ccc(CN(C)C[C@H]2Oc3c(NS(=O)(=O)c4ccc(C)cc4)cccc3C(=O)N([C@H](C)CO)C[C@H]2C)cc1 | -10 | 2.1 | -0.42 | -11 |
| C[C@H]1CN([C@@H](C)CO)C(=O)c2cc(NC(=O)C3CCCCC3)ccc2O[C@H]1CN(C)C(=O)Nc1ccc(C(F)(F)F)cc1 | -38 | / | -0.087 | 21 |
| Cc1ccc(S(=O)(=O)Nc2ccc3c(c2)C(=O)N([C@H](C)CO)C[C@@H](C)[C@H](CN(C)S(=O)(=O)c2ccccc2)O3)cc1 | -16 | 1.6 | -0.25 | 1 |
| O=C(Nc1sc2c(c1C(=O)NCc1cccnc1)CCCC2)c1cccs1 | / | 0.8 | / | -12 |
| C=Cc1c(S(C)(=O)=O)sc(C(=O)Oc2ccccc2)c1C | -4 | -0.7 | 0.092 | -8 |
| COC(=O)c1cccc2oc3cc(CO)cc(O)c3c(=O)c12 | -23 | -0.8 | 2.1 | -1 |
| N#Cc1ccccc1CSc1nc(N2CCCCC2)nc(N2CCCCC2)n1 | / | -0.2 | / | -10 |
| N#Cc1c(N)c2ccccn2c1C(=O)c1ccc(Br)cc1 | -34 | -0.8 | -0.22 | -12 |

Additional structures:
| molecule | Shh pathway inh | PD-1 reverse act | YB-1 expr inh | MITF inh |
| --- | --- | --- | --- | --- |
| Cc1noc(C)c1NC(=O)Nc1cccc2c1O[C@H](CN(C)Cc1ccc(Cl)c(Cl)c1)[C@@H](C)CN([C@H](C)CO)C2=O | 26 | -0.4 | -0.5 | 0 |
| C[C@H]1CN([C@@H](C)CO)C(=O)c2cccc(NS(=O)(=O)c3ccccc3)c2O[C@H]1CN(C)C | 9 | / | -0.26 | -13 |
| C[C@H]1CN([C@@H](C)CO)C(=O)c2cc(NC(=O)Nc3ccc(F)cc3)ccc2O[C@@H]1CN(C)C | 19 | 1.0 | 0.035 | 14 |
| CC(C)NC(=O)Nc1ccc2c(c1)CC(=O)N([C@@H](C)CO)C[C@H](C)[C@@H](CN(C)C(=O)Nc1ccc(C(F)(F)F)cc1)O2 | / | 0.3 | 0.11 | -4 |
| Cn1c(Cc2cccc3ccccc23)nnc1SCc1ccccc1C#N | / | -1.6 | / | -8 |
| Cc1ccc(S(=O)(=O)Nc2ccc3c(c2)C(=O)N([C@H](C)CO)C[C@H](C)[C@H](CN(C)C(=O)NC(C)C)O3)cc1 | / | -1.7 | -0.069 | -2 |
| COc1ccccc1N1CCN(C(=O)CSc2nc3ncnc(N)c3[nH]2)CC1 | / | 2.2 | / | -12 |
| COc1ccc(S(=O)(=O)N(C)C[C@H]2Oc3ccc(NC(=O)c4ccncc4)cc3CC(=O)N([C@@H](C)CO)C[C@H]2C)cc1 | / | -0.6 | -0.19 | 13 |
| CC(C)NC(=O)N(C)C[C@H]1Oc2ccc(NC(=O)c3ccncc3)cc2CC(=O)N([C@@H](C)CO)C[C@H]1C | -35 | 1.8 | 0.27 | -12 |
| S=C(Nc1ccccc1)c1ccccc1 | -20 | 0.4 | 0.82 | -16 |
| CC(C)NC(=O)Nc1ccc2c(c1)C(=O)N([C@H](C)CO)C[C@H](C)[C@H](CN(C)C(=O)Nc1ccc3c(c1)OCO3)OCCCC[C@@H](C)O2 | -9 | 4.1 | -0.24 | 4 |
